ClpP mod = qHTS Assay for Activators of ClpP | ATP-dependent Clp protease proteolytic subunit (Bacillus subtilis (strain 168)), P80244 | purified B. subtilis ClpP, FRET peptide cleavage, 20 min | Potency, µM (doses to about 57.5 µM), without a hit: at the top dose activity change, negative = active | 340,000 tested, 1.9% active | AID 651965, 2013; active = well fitted falling curve with a large enough effect; inconclusive = small, poorly fitted or top-dose-only effect; inactive = no such curve, though single readings can be large or run the other way; further: potency means the concentration at half of the fitted maximal effect; the source files actives as falling curves though it sought activators and does not explain the sign; nearly all actives have a fitted effect of over 65% in size; many hits overshoot -100%
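ClpP 10 microg/mL final, pH 8 Tris/KCl buffer with BSA, glycerol, Tween-20; compound pinned in; FRET-FV substrate; RT 20 min; Ex320/Em430; ΔFRET vs ADEP 5.8 microM, DMSO, no enzyme.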
gsp antag = antagonizes gsp, the McCune-Albright syndrome mutation. 340,000 tested, 0.4% active. gsp-mutant cells, cAMP HTRF, 30 min; control for the full effect not named in the record. Potency, µM (series often up to 76.9 µM), inactives show at the top dose activity change, negative = inhibition, hits mostly inhibitors; active = falling curve of any shape with a large fitted effect; inconclusive = falling curve, mostly with a smaller effect; inactive = flat or rising curve; cell line not stated here;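 further: intracellular cAMP measured with PDE inhibitor Ro 20-1724 present during compound exposure; potency means the concentration at half of the fitted maximal effect; on the % scale 0 is the no-effect control and ±100 the full control effect; nearly all actives have a fitted effect of over 65% in size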
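G418-selected cells were plated in DMEM/10% FBS for 16-24 h at 37C, then treated with compounds plus the PDE inhibitor […] (300 uM solution added) for 30 min at 37C. Intracellular cAMP was measured by HTRF after 30 min lysis at room temperature.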
TRPV1 potentiator = human TRPV1 potentiation; Q8NER1; TRPV1-expressing cells, Fluo-8 calcium influx, capsaicin EC20 potentiation; host cell line not named in the record; control for the full effect not named in the record; potentiation, % at 8.33 µM; 320,000 tested, 0.02% active; AID 540277; active means potentiation above 80%; inconclusive means 30% to 80%; inactive means below 30%; further: 0% is about no effect
Target sequence (Q8NER1 whole entry, looked up): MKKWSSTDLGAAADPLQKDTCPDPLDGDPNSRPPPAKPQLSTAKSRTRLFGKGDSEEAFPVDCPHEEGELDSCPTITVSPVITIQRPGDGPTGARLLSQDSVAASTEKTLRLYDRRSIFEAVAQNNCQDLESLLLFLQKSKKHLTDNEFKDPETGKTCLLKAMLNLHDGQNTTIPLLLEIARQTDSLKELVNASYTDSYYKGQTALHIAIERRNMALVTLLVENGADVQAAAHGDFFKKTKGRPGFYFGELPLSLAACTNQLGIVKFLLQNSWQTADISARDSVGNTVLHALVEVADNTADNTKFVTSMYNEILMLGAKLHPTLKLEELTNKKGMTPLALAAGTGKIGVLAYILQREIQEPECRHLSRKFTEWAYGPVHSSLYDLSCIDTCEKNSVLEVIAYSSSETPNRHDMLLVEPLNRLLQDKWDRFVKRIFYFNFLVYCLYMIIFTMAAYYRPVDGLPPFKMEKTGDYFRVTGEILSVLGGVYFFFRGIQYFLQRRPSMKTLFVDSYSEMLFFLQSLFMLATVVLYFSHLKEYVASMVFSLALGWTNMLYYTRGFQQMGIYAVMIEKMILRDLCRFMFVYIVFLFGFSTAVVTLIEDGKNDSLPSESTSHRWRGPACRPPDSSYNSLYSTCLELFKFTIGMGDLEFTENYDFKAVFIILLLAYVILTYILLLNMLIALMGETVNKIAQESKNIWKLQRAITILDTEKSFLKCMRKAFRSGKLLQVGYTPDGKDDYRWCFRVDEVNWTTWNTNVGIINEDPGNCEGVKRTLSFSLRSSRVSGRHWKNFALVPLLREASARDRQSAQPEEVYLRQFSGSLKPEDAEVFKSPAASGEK
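TRPV1-expressing cells were cultured overnight at 35.5C and loaded with Fluo-8 calcium dye for 40 to 90 min at room temperature. After a 10 s baseline, compound was added and calcium influx was read kinetically for 3 min (ex 480/em 520 nm).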
gsp agonist = agonists of gsp mutant (McCune-Albright syndrome); 340,000 tested, 0.13% active; gsp mutant cells, cAMP HTRF, 30 min; control for the full effect not named in the record; Potency, µM (highest dose often 76.9 µM), for the others: at the highest dose activation (cAMP increase), usual class: activators; active = well fitted activation curve with a large enough effect; inconclusive = small, poorly fitted or top-dose-only effect, or another doubt; inactive = no such curve, though single readings can be large or run the other way; cell line not stated here;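 further: phosphodiesterase inhibitor Ro 20-1724 added with compounds to block cAMP breakdown; potency means the concentration at half of the fitted maximal effect; nearly all actives have a fitted effect of over 60% in size; about a fifth of the inactives were tested at one dose only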
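Cells in DMEM/10% FBS with G418 were pretreated with compounds in DMSO plus […] (300 uM stock) for 30 min at 37C. cAMP was measured by HTRF (cAMP-d2 plus anti-cAMP antibody-K) after 30 min at room temperature.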
Sfp inh = Sfp phosphopantetheinyl transferase inhibition. Biochemical Sfp PPTase activity, qHTS. 310,000 tested, 3.5% active. Potency, µM, for inactives: max response, negative = inhibition, hits mostly inhibitors; active means well fitted inhibition curve with a large enough effect; inconclusive means small, poorly fitted or top-dose-only effect, or another doubt; inactive means no such curve, though single readings can be large or run the other way;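 further: the enzyme is Sfp with the accession as filed and its product quenches rhodamine fluorescence; potency means the concentration at half of the fitted maximal effect; 0% = enzyme reaction without inhibitor and -100% = no enzyme wells; top concentration of the series not given in the record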
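Compounds were incubated with enzyme (final 15 nM) for 15 min at room temperature before substrate addition started the reaction. Fluorescence at 525 nm excitation, 598 nm emission was recorded immediately and after 30 minutes.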
Menin MLL FP FL = inhibitors of human menin-MLL interaction, wild-type MLL peptide. Fluorescence polarization, fluorescein-MLL peptide displacement from menin. FP activity change, % at 61.4 µM. 290,000 tested, under 10 active; inconclusive = falling polarisation curve, or a change in total fluorescence; inactive = total fluorescence flat and polarisation flat or rising; no compound was filed as active; the % refers to the polarisation; negative = inhibition;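 further: % of control where 0% means no effect; inhibitors lower the polarisation; unlabelled MLL peptide was the positive control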
D2 PAM = positive allosteric modulators of human D2 dopamine receptor; P14416; DiscoveRx D2 beta-arrestin cells, luminescence, 90 min; 100% = 57 uM dopamine signal; potentiation, % (concentration not given with the values); 360,000 tested, 0.23% active; active = potentiation of 50% or more; inconclusive = 30% to 50%; inactive = 30% or less;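 further: compound concentration not given in the record; tested on top of an EC20 dose of dopamine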
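PathHunter beta-arrestin assay in DiscoveRx D2 cells. Compounds were added with an EC20 of dopamine (50 nM final) for 90 min at 37 deg C. Luminescence was read 1 h after detection reagent, with 57 uM dopamine as the EC100 control.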
Numbers without * were called inactive; u = inconclusive; x = no result given; [ ] = another dose, or the depositor's remark.

Each structure is followed by: ClpP mod, gsp antag, TRPV1 potentiator, gsp agonist, Sfp inh, Menin MLL FP FL, D2 PAM
> O=C(COC(=O)C1c2ccccc2Oc2ccccc21)Nc1ccc2c(c1)OCO2
→ -3.5%, -10%, -8, 1%, 10%, 2.0, -5
> O=C1CSC(c2ccncc2)N1Cc1ccc(F)cc1 (stereo not given)
→ x, 8%, 13, 13%, -22%, 0.8, -1
> CCOC(=O)c1c(N)sc(C(=O)Nc2ccccc2)c1C
→ -6.2%, -4%, 3, -32%[inhibitor], 20µM*, -2.3, -3
> CCCNC(=O)c1nnsc1Sc1ccc(Cl)cc1
→ x, -12%, -2, 19%[15.4 µM], -7%, 0.5, 2
> CC(=O)c1cccc(NC(=O)CCn2c(=S)oc3ccccc32)c1
→ x, -12%, -12, 7%, -10%, 3.8, -2
> COc1ccc(CC(=O)NC(=S)Nc2ccc(S(N)(=O)=O)cc2)cc1
→ -1.6%, 29%, 12, -1%, 5%, 0.2, -14
> O=C(COC(=O)Cc1cn2ccsc2n1)NC12CC3CC(CC(C3)C1)C2
→ -0.6%, -27%, -9, -15%, 7%, 1.3, -6
> Nc1ccccc1C(=O)N=Nc1[nH]c(N)c2ccccc12
→ x, 3%, -2, -2%, 6%, 7.1, -10
> O=C(O)c1c(C(=O)O)c(-c2ccc(Cl)c(Cl)c2)n2c1CSC2
→ u, 0%, 3, 15%, 1%, -1.4, 1
> O=C(Nc1ccccc1[N+](=O)[O-])c1cccc(N2C(=O)CCC2=O)c1
→ -4.2%, 6%, 8, -20%[15.4 µM], 2%, 1.8, 25
> C=CCn1cnnc1SCC(=O)N(C)CC1COc2ccccc2O1 (stereo not given)
→ -26%, -1%, x, 9%[15.4 µM], x, x, -21
> Fc1ccc(Cc2nnc(-c3cccs3)o2)cc1
→ 1.2%, 6%, -4, 0%, 2%, 3.7, 0
> CC(=O)Nc1cccc(OCc2ccc(S(=O)(=O)Cc3ccccc3)cc2)c1
→ 2.9%, -3%, 0, -18%, 9%, -22, 24
> O=C(CCC1CCCCC1)NCc1ccncc1
→ 1.1%, 12%, -13, 17%, 10%, 2.9, -6
> O=C(NC(=S)Nc1ccc(S(=O)(=O)Nc2nccs2)cc1)c1ccc(Br)o1
→ -1.9%, -19%, -5, 15%, -21%, 2.2, -25
> COc1ccccc1C(=O)NC(=S)Nc1ccc(Cc2ccncc2)cc1
→ -0.9%, -12%, -3, u, u, -2.9, -7
> Cc1cc(C)cc(N(C(=O)CNC(=O)c2ccco2)C(C(=O)NC2CCCCC2)c2ccncc2)c1 (stereo not given)
→ x, 3%, 3, 18%, 11%, x, -10
> CN(C)S(=O)(=O)c1ccc(Cl)c(NC(=O)CN2CCNC(=O)C2)c1
→ x, 6%, 0, 21%[15.4 µM], 5%, -11, -7
> Cn1ncc2c(NCc3cccc(C(F)(F)F)c3)c(C(=O)O)cnc21
→ x, x, 6, x, 9%, -2.6, x
> CC1CCN(Cc2ccc(-c3nnn(CC(=O)NC4CCCCC4)n3)cc2)CC1
→ 1.2%, 2%, 0, 11%, 18%, 0.5, -11
> COc1cnn(-c2ccccc2)c(=O)c1SCc1ccc(Cl)c(Cl)c1
→ -5.3%, u, -4, -1%, -21%, 1.1, -6
> Cc1nc(SCC(=O)Nc2c(C)n(C)n(-c3ccccc3)c2=O)[nH]c(=O)c1Cc1ccccc1
→ 0.6%, -8%, 2, -14%, 4%, -1.7, -15
> CS(=O)(=O)N(CC(=O)NCc1ccco1)c1ccc(Cl)cc1Cl
→ x, 7%, -4, -4%, 19%, -1.0, -5
> CO/N=C1\CCCc2c(C(=O)NN)sc(SC)c21
→ x, 10%, u, 19%[15.4 µM], 16%, 5.9, -12
> CCn1nc(C)c(CCC(=O)O)c1C
→ 1.5%, 0%, -2, -5%[15.4 µM], 8%, -3.5, -5
> CC(C)(C)c1cc(S(=O)(=O)CCc2ccccn2)cc(C(C)(C)C)c1F
→ 0.4%, -17%, -7, u, 22%, -2.2, -1
> CC(C)(C)c1ccc(C(=O)NCc2nnc(SCC(=O)NCc3ccco3)o2)cc1
→ 0.9%, -10%, 9, 2%, 5%, -4.8, -11
> CC(=O)c1ccc(OCc2cc(C(=O)N3CC[C@@H]4CCCC[C@H]4C3)no2)cc1
→ -8.2%, -8%, -10, -24%, -5%, -1.5, 6
> Cc1ccc(S(=O)(=O)N2CCCCC2C(=O)O)cc1 (stereo not given)
→ x, 8%, 2, 4%, 11%, -1.0, -4
> Cc1ccccc1OCC(O)Cn1c(N2CCCCC2)nc2c1c(=O)[nH]c(=O)n2C (stereo not given)
→ -1.4%, -11%, -3, 5%, 13%, -1.8, -9
> COc1ccc(/C=N\Nc2ncc(F)c(N3CCOCC3)n2)cc1OC
→ -2.3%, -9%, -10, 0%[15.4 µM], 2%, -0.3, 5
> N#Cc1c(-c2ccc(Cl)cc2)c(C#N)c(=O)n(N)c1N
→ 1.2%, 1%, 0, -13%, -10%, 2.3, -15
> Cc1ccsc1C(=O)N(Cc1nnc(-c2ccccc2Cl)o1)C1CC1
→ -1.2%, 6%, 19, -15%, x, x, 3
> COc1ccc(N(CC(=O)NCc2ccccc2)S(=O)(=O)c2c(C)noc2C)cc1
→ -1.3%, -1%, 0, -2%, -1%, 0.8, -6
> Oc1ccccc1C1CC(c2cccs2)=NC(c2cccc(Br)c2)N1 (stereo not given)
→ 0.8%, 11%, -3, -1%[15.4 µM], -19%, 5.4, -19
> Cc1cc(C)c(S(=O)(=O)N2CCCC(C(=O)NCc3cccnc3)C2)c(C)c1 (stereo not given)
→ 0.9%, 0%, -7, -11%, 1%, x, 3
> Cc1cc(NC(=O)COC(=O)c2n[nH]c3ccccc23)no1
→ 11µM*, 3%, -2, 2%, 7%, 0.8, -3
> Cc1ccnc2nc(C(=O)OCCOc3ccc(Cl)cc3)nn12
→ x, 9%, 25, -7%[15.4 µM], 18%, 6.9, 3
> O=c1c(-c2ccc(Cl)cc2)[n+]([O-])c2ccccc2n1OCc1ccccn1
→ -3.7%, -7%, -6, -29%, 13%, -0.3, 0
> COc1ccc2[nH]c(CN3CCN(C(C)C)C(CCO)C3)c(C)c2c1 (stereo not given)
→ x, -1%, -1, 38%[15.4 µM], 12%, -1.8, -3
> Cc1cc2c3c(c1C)C1(C(=O)N3C(C)(C)CC2C)C(C#N)=C(N)Oc2n[nH]c(C)c21 (stereo not given)
→ 0.1%, -3%, -4, 6%, 10%, 4.8, -3
> Cn1c(CSc2ncn[nH]2)nc2ccccc21
→ -4.7%, 3%, 16, -25%, 0%, -0.5, 13
> c1csc(-c2ccc(N3CCOCC3)nn2)c1
→ u, -3%, 30, 1%, 10%, -0.8, -10
> C/C(=N\N1C(=O)c2ccccc2NC1c1ccccc1)c1ccccc1O (stereo not given)
→ -2.6%, -5%, -8, u, 23%, -0.5, -49
> CCCc1nc(N2CCOCC2)c2sc(=S)n(-c3ccccc3)c2n1
→ x, x, -11, x, -7%, 7.8, x
> Cc1cccc(N2CCN(C(=O)c3ccc4c(c3)CCN4S(C)(=O)=O)CC2)c1C
→ 0.9%, -1%, -12, u, -7%, x, -4
> CCc1cc2c(=O)c(-c3ccon3)c(N)oc2cc1OC
→ -0.8%, -6%, -5, 4%, 3%, -1.0, 3
> O=C(CSc1nc2cc(C(F)(F)F)ccc2n1Cc1ccccc1)NC1CCS(=O)(=O)C1 (stereo not given)
→ -9.7%, -8%, 9, -5%, 16%, 1.0, -11
> N#Cc1nc(-c2cccs2)oc1NCCCN1CCOCC1
→ 1.1%, 5%, 11, -4%, 10%, -1.2, -27
